# PKD1 inh: PKD1 (human) kinase inhibition; Q15139; PKD1 kinase fluorescence polarization assay; inhibition, %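 (about 10 µM by stock and volumes)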; hit rate 0.056% among 200,000; AID 797;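 active = inhibition of 50% or more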;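 note: controls were vehicle for no effect and a reference inhibitor for full effect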
# HSV augment: increases HSV replication in cells. HSV replication augmentation in cells, fold increase. maximum fold increase. hit rate 0.005% among 220,000. AID 1956;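 active = peak rise of 1.5-fold or more in the series; inconclusive = self-fluorescent or not available for retest; tested in PC3 cells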;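 note: first round at 10 µM; read as green reporter fluorescence; hits show the peak of a series up to 25 µM; 1 = signal of infected wells without compound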
# GALR2 ag: activates the human galanin receptor 2. O43603. hit rate 0.48% among 140,000. GALR2-expressing cells, agonist activation read-out. activation, %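 (tested at 5 µM)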;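 active = above mean plus 3 SD of all compounds, about 5% in these data, not always enough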;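 note: 0% = vehicle buffer wells and 100% = reference agonist at full effect; tested in CHO reporter cells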
# Target sequence (O43603 whole entry, looked up): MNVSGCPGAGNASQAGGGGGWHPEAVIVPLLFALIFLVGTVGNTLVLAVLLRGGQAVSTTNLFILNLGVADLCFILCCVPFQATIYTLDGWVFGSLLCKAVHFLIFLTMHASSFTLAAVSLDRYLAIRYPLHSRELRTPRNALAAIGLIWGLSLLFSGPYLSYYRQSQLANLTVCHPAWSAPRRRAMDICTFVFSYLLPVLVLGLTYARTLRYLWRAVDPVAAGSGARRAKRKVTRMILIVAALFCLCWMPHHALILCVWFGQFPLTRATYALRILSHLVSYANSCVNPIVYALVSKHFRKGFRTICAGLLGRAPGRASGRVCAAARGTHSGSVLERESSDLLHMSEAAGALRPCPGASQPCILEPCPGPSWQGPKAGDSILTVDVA
# RGS16-Gao: modulates binding between human RGS16 and Galphao; bead-based flow cytometry RGS16-Galphao binding, fluorescence; actives lie on both sides; hit rate 0.38% among 220,000; O15492+P09471; binding response (% of control), % at 10 µM;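 active = below 25% or above 175%, edge rows of some plates excepted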;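 note: Galphao activated by GDP with aluminum fluoride before binding; 100% = wells without compound and 0% = beads without RGS; some results beyond the cut were filed as inactive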
# Target sequence (O15492 whole entry, looked up): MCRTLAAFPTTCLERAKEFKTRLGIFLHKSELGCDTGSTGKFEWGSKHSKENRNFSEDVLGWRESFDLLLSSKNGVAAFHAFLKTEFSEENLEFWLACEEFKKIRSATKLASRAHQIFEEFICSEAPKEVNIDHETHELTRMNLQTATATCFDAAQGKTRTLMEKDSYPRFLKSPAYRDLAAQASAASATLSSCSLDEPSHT
# Target sequence (P09471 whole entry, looked up): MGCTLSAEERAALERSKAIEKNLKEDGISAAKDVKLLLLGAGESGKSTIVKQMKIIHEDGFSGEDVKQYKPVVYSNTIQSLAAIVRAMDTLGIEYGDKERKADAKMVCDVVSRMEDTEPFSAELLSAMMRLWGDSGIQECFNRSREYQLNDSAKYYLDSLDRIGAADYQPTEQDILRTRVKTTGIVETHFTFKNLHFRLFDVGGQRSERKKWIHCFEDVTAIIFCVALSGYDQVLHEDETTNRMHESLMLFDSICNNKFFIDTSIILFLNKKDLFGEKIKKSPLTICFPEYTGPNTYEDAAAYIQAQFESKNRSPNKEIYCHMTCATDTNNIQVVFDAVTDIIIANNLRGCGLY
# INS promoter inh: TRM-6 insulin promoter activity inhibition; TRM-6 cells (human fetal islet line), insulin promoter-eGFP reporter, imaging; reporter expression induced with tamoxifen; inhibition, % at 2 µM; hit rate 0.9% among 130,000;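 active = inhibition above the mean plus 3 SD, with well images judged a real hit on visual review, cut at about 60% in these data, passing the limit was not always enough; inconclusive = inhibition over the cutoff but images rejected on review; inactive = inhibition not above the cutoff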
# INS promoter inh cell count: second read-out of INS promoter inh, no call of its own (marks repeat the call); normalized cell count, %; measured here: cell count, toxicity; reference of the scale not given here;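 cells exposed to compound for 48 h; stained nuclei by imaging scaled within each plate; lower means fewer cells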
# HSV augment primary fold: also measured in HSV augment; calls as there; fold increase; compound at 10 µM; measured here: primary screen fold increase 10 uM; tested in PC3 cells;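 GFP signal in the first replicate; 1 = infected wells without compound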
# * marks the source's active call; other numbers are inactive results; i = inactive; ? = inconclusive; . = no result given.
SMILES,PKD1 inh,HSV augment,HSV augment primary fold,GALR2 ag,RGS16-Gao,INS promoter inh,INS promoter inh cell count
CC(Sc1nnc(Cc2cccs2)n1C1CCCCC1)C(=O)N1CCc2ccccc21 (configuration not stated),-5,i,0.99,-1.5,98,i,38
COc1ccc(Nc2oc(COc3ccc(Cl)cc3)nc2C#N)cc1,0,i,0.86,3.1,104,14,72
O=C(Nc1ccc(CN2CCOCC2)cc1)c1cc2ccccc2o1,-4,i,1,-2.9,97,-52,156
CC(C)(C)NC(=O)C(=O)NN=C1CCCCCC1,-3,i,0.85,.,101,.,.
CCCCCc1c(O)nc(SCCN(C)C)[nH]c1=O,.,i,0.95,.,99,.,.
COc1ccc(C)cc1NC(=O)CSc1nnc(-c2cc3cccc(OC)c3o2)n1N,0,i,0.71,2.7,102,10,158
CCC(C)(C)C(=O)Nc1ncc(S(=O)(=O)c2ccc([N+](=O)[O-])cc2)s1,6,i,1.2,0.0,96,-21,89
CCN(CC(=O)Nc1cc(C)c(Cl)cc1OC)CC(=O)NC1CCS(=O)(=O)C1 (configuration not stated),-6,i,0.95,.,108,17,25
CSC(=NCc1cccnc1)NS(=O)(=O)c1cccs1,-6,i,0.96,-0.5,101,27,74
Cc1cc(Sc2nccn2C)ncc1[N+](=O)[O-],-1,i,1,-1.1,105,-37,117
O=[N+]([O-])c1cccnc1Oc1ccc(C2SCCS2)cc1,.,i,0.94,.,100,.,.
O=C(Nc1ccccc1)c1cccc(S(=O)(=O)N2CCCCC2)c1,-6,i,0.84,-1.9,100,-22,100

# 2 entries from above in a different format.
Cc1cc(Sc2nccn2C)ncc1[N+](=O)[O-]
- PKD1 inh: -1
- HSV augment: i
- HSV augment primary fold: 1
- GALR2 ag: -1.1
- RGS16-Gao: 105
- INS promoter inh: -37
- INS promoter inh cell count: 117
CSC(=NCc1cccnc1)NS(=O)(=O)c1cccs1
- PKD1 inh: -6
- HSV augment: i
- HSV augment primary fold: 0.96
- GALR2 ag: -0.5
- RGS16-Gao: 101
- INS promoter inh: 27
- INS promoter inh cell count: 74

# Carrying on:
SMILES,PKD1 inh,HSV augment,HSV augment primary fold,GALR2 ag,RGS16-Gao,INS promoter inh,INS promoter inh cell count
CC(C)(C)NC(=O)CN1CCN(C(=O)CCl)CC1,1,i,0.84,.,84,.,.
CN(CCNC(=O)c1ccc(N2CCCC2=O)cc1)CCc1ccccc1,-5,i,0.85,-2.2,101,-44,118
COc1cc(CNCCCN2CCOCC2)cc(Br)c1OCC(=O)N1CCCCC1,-6,i,0.97,-2.3,118,0,116
O=C1CC(Sc2ncn[nH]2)C(=O)N1c1ccccc1 (configuration not stated),-4,i,1,-0.5,99,-8,113
COc1cc(C(=S)N2CCOCC2)cc(OC)c1OC(=O)c1cc([N+](=O)[O-])c(C)c([N+](=O)[O-])c1,11,i,1,-2.4,96,45,79
Cc1ccccc1-n1nc2c(c1NC(=O)COc1ccc(Cl)cc1)CS(=O)C2 (configuration not stated),-2,i,0.85,-2.2,98,.,.
Cc1ccc(S(=O)(=O)N2CCCC2C(=O)NCc2ccc3c(c2)OCO3)cc1 (configuration not stated),-5,i,1,.,108,.,.
Cc1nn(C)cc1N1C(=O)c2cccc3c(N)ccc(c23)C1=O,.,?,.,.,92,.,.
CN(C)S(=O)(=O)N1CCc2ccccc21,4,i,0.88,-2.8,146,-267,76
O=C(CCNc1n[nH]c(=O)[nH]c1=O)N/N=C\c1ccc(Br)cc1,.,i,1,.,100,.,.
CCOC(=O)C1CN(S(=O)(=O)c2ccc(C)cc2)c2cc(S(=O)(=O)CC)ccc2O1 (configuration not stated),10,i,0.92,-1.9,100,-27,143
Brc1ccc(-c2nnc3n2C2(CCCC2)Cc2ccccc2-3)o1,7,i,1.1,-0.5,107,-212,130
COc1cccc(C2C3=C(CC(C)(C)CC3=O)OC(N)=C2[N+](=O)[O-])c1 (configuration not stated),-7,i,0.93,-1.7,101,-48,63
CC(=O)c1ccc(N2CCN(C(=S)Nc3cccc(Cl)c3)CC2)cc1,-5,i,0.94,-1.1,102,0,93
Cc1cc([N+](=O)[O-])cc([N+](=O)[O-])c1NCC(C)C,1,i,0.92,.,102,17,149
C/C(CCC(C)C)=N\NC(=S)NCc1ccccc1,-4,i,0.93,.,99,.,.
Cc1nnc(C)n1N1C(=O)c2cccc3cccc(c23)C1=O,-8,.,.,-1.8,100,.,.
O=C1Nc2c(c(=O)[nH]c(=O)n2-c2ccc(F)cc2)C1(NS(=O)(=O)c1ccccc1)C(F)(F)F (configuration not stated),.,i,0.95,.,97,.,.
Cn1ncc(C(=O)N=S(C)(=O)c2ccccc2)c1[N+](=O)[O-] (configuration not stated),.,i,1.1,.,100,.,.
O=C(NCCCN1CCOCC1)c1ccc(CNS(=O)(=O)c2ccc(F)cc2)cc1,-4,i,1,-1.0,162,17,140
COc1ccccc1CNC(=O)C1CC(=O)N(c2ccc(C)c(C)c2)C1 (configuration not stated),-5,i,0.94,-0.8,82,40,150
O=C(c1ccco1)N1CCCC(c2ccccc2)C1 (configuration not stated),3,i,0.92,-4.1,102,24,119
O=C(NCc1ccc2[nH]c3c(c2c1)CCCC3)c1ccc(S(=O)(=O)N2CCOCC2)cc1,-4,i,0.91,0.1,103,17,92
c1ccc(Sc2ncnc3c2oc2ccccc23)cc1,-12,i,0.85,-0.9,104,42,62
CC(C)(C)OC(=O)N1CCC(c2c(C(=O)O)cnn2-c2ccccc2)CC1,-7,i,1,-4.3,87,.,.
Cc1ccc(CNC(=O)c2ccc(NS(=O)(=O)c3c(C)noc3C)cc2)cc1,7,.,.,-2.9,104,.,.
CCCCC1CCC(c2ccc(C(N)=O)cc2)CC1 (configuration not stated),8,i,1,-1.2,120,7,130
CS(=O)(=O)N(CC(=O)NCCSC1CCCCC1)c1ccccc1,-5,i,1,.,107,-53,80
CC(=O)C1C(=O)c2c(cccc2[N+](=O)[O-])C1=Nc1ccccc1C (configuration not stated),-1,.,.,-2.7,99,-28,157
CCN1CCN(CCNC(=O)c2cn(C(C)c3ccccc3F)nn2)CC1 (configuration not stated),-7,i,0.75,-0.8,101,40,71
Cc1ccc(C(=O)c2oc3nc(C)cc(C)c3c2N)cc1,-4,i,0.93,0.5,104,21,143
Cc1cc(C)nc(Sc2c(C)nn(-c3ccccc3)c2C)n1,1,i,1,-1.2,104,-12,102
Cc1ccnc(NC(=O)c2cccs2)c1,3,i,0.96,-1.9,101,31,91
Cc1cc2ncn(-c3ncnc4sc(C)c(C)c34)c2cc1C,-14,i,0.93,-2.7,104,18,103
O=C(Nc1ccc(NC(=O)C2CC2)nc1)c1cnccn1,0,i,1,.,103,.,.
O=C(C1CC1)N1CCc2cc(S(=O)(=O)N3CCOCC3)ccc21,-10,i,0.97,-2.0,110,-38,115
COc1ccc(OC)c(S(=O)(=O)N2CCC(C(=O)Nc3cc(C)ccc3C)CC2)c1,-7,i,0.86,-1.3,106,14,96
CCOC(=O)/C=C/COc1ccccc1[N+](=O)[O-],4,i,0.75,.,100,.,.
O=C(NCC1CCCO1)c1onc(CSc2ccc(F)c(F)c2)c1C(=O)O (configuration not stated),-8,i,0.99,-2.5,103,-3,131
COC(=O)c1ccc(OC)c(CSc2nnc(-c3ccc(C(C)(C)C)cc3)o2)c1,-4,i,1,-0.8,102,i,77
C=C(C)COc1ccc(-c2[nH]ncc2Oc2cccc(OC)c2)c(O)c1,17,i,0.86,-3.2,99,-36,147
CN(Cc1ccccc1)C(=O)COc1ccc(N(C)S(=O)(=O)c2ccc(F)cc2)cc1,.,i,1,.,101,.,.
CC(C)(C)NC(=O)COC(=O)c1ccccc1Nc1ccc(SC(F)F)cc1,-1,i,0.99,-2.5,103,.,.
C/C(=N\NC(=S)NCC(C)(C)C)c1cc(F)cc(F)c1O,.,i,0.93,.,98,.,.
O=C(/C=C/c1ccccc1)NC(=S)Nc1ccccc1C(=O)NC1CCCCC1,7,i,0.88,0.9,94,-10,84
Cc1ccc(CSc2nnc(-c3ccco3)n2N)cc1,-6,i,1.2,-3.0,107,0,176
CNC(=O)c1c(NC(=O)c2cccc(N3C(=O)CCC3=O)c2)sc2c1CCC2,.,i,1,.,-3.7*,.,.
CC1=C(C(=O)OC(C)C)C(c2ccc(Br)s2)NC(=O)N1C (configuration not stated),-7,i,0.99,-0.2,107,.,.

# Compound profiles, from the list above:
# CNC(=O)c1c(NC(=O)c2cccc(N3C(=O)CCC3=O)c2)sc2c1CCC2 as listed: PKD1 inh: .; HSV augment: i; HSV augment primary fold: 1; GALR2 ag: .; RGS16-Gao: -3.7*; INS promoter inh: .; INS promoter inh cell count: .
# COc1ccc(OC)c(S(=O)(=O)N2CCC(C(=O)Nc3cc(C)ccc3C)CC2)c1 as listed: PKD1 inh: -7; HSV augment: i; HSV augment primary fold: 0.86; GALR2 ag: -1.3; RGS16-Gao: 106; INS promoter inh: 14; INS promoter inh cell count: 96

# More entries follow:
SMILES,PKD1 inh,HSV augment,HSV augment primary fold,GALR2 ag,RGS16-Gao,INS promoter inh,INS promoter inh cell count
Cn1c2c(c(=O)n(C)c1=O)CN(Cc1ccco1)CN2,-2,i,0.94,-3.5,79,17,123
O=C(CSc1nc2ccccc2o1)Nc1ccccc1N1CCOCC1,8,i,0.93,-1.8,106,53,224
CCOCCCNC(=O)CCc1ccc(S(=O)(=O)Nc2ccc(C)cc2)cc1,-9,i,0.99,.,103,-78,98
NC(=O)CC[C@H](NC(=O)c1ccc(F)cc1)C(=O)OCC(=O)Nc1c(F)c(F)c(F)c(F)c1F,-13,i,1,-0.1,96,0,88
COc1cccc(/C=N/Nc2ccc(C(=O)O)cc2)c1O,-9,i,1.1,.,100,.,.
CC1=NNC(=O)C1C(c1ccccc1)C(C#N)C#N (configuration not stated),6,i,0.99,-2.9,88,.,.
O=C(NCc1ccccc1F)C1CCCN1C(=O)NCc1ccccc1 (configuration not stated),1,i,1,-0.6,95,.,.
O=C1NC(=S)SC1=C1CCCCCC1,-8,i,0.93,-1.5,93,.,.
COc1ccc(/C=N/Nc2ccc([N+](=O)[O-])cc2)cc1Cn1cc([N+](=O)[O-])cn1,1,i,0.75,-0.6,118,-55,65
Clc1ccccc1-c1nc(-c2cccnc2)no1,-2,i,0.94,-1.6,109,.,.
CCn1c(SCC(=O)Nc2cc(C)c(Cl)cc2OC)nnc1-c1ccco1,3,i,0.95,-1.5,98,-35,138
Cc1cc(C(=O)Cn2nnc(-c3ccc(Cl)cc3)n2)c(C)n1CC1CCCO1 (configuration not stated),-4,i,0.86,-0.8,100,.,.
O=C(Nc1nc2ccccc2[nH]1)C1CCCO1 (configuration not stated),4,i,0.92,-1.0,101,.,.
C=C(C)COc1ccc(-c2[nH]ncc2-c2ccc(OC)cc2)c(O)c1,.,i,0.95,.,103,.,.
O=C1c2ccccc2C(=O)N1CCCOc1ccccc1,2,i,1,-1.7,96,6,90
COc1ccc(C2CC(C(F)(F)F)n3nc(C(=O)O)cc3N2)cc1OC (configuration not stated),0,i,0.88,-0.7,100,-82,123
COc1ccc(OC)c2c(C)cc(N3CCN(C(=O)c4ccc(F)cc4)CC3)nc12,-13,i,0.93,-0.7,105,8,152
O=S(=O)(c1ccc2c(c1)OCCO2)N1CCC(n2nnc3cc(C(F)(F)F)ccc32)CC1,6,i,0.89,-1.6,102,-17,90
CCc1nc2sc3ccccc3c(=O)c2c(=O)n1Cc1ccc(OC)cc1,.,i,0.95,.,89,.,.
COc1ccc(CNC(=O)CCc2nc(-c3ccccc3F)no2)c(OC)c1,2,i,0.88,0.7,100,-42,100
Cc1cc(N/N=C/c2ccc(O)cc2O)nc(-c2ccccc2O)n1,-2,i,0.56,0.0,106,44,105
O=C(/C=C/c1ccco1)Nc1nc(-c2ccccn2)cs1,-2,i,0.92,.,98,.,.
COc1ccc(NC(=O)CCN2C(=O)c3ccc([N+](=O)[O-])cc3C2=O)c(OC)c1,-9,i,1,-1.4,42,-24,74
Cn1c(SCC(=O)Nc2cccc(S(=O)(=O)NC3=NCCCCC3)c2)nnc1-c1ccncc1,-10,i,0.8,.,95,-56,94
CCCc1c(C(=O)Nc2ccc(F)cc2C)cnn1-c1ccccc1,.,i,1,.,104,.,.
c1coc(-c2nnc3sc(-c4cccs4)nn23)c1,15,i,0.87,-2.5,103,.,.
Cc1cccc(-n2c(=O)[nH]c3c(C(N)=O)nc(CC(C)C)nc32)c1,-7,i,0.8,-3.1,95,82*,52*

# High-throughput results from PubChem.
